# Bioassay records as filed in PubChem.
# KCNQ2 inh – KCNQ2 channel blockers in CHO-K1 cells – cell-based, FluxOR thallium flux, B-score, primary screen (AID 2156); 20 min; stronger effect = lower value; only compounds with negative scores are shown here; some inactives read as strong as hits; B-score at 10 µM; 1.1% of 310,000 active;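 active = fluorescence ratio B-score at most minus 3 library SDs, with starting brightness B-score within 2 library SDs, cut at about -5.5 in these data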
# Target sequence (O88943 whole entry, looked up): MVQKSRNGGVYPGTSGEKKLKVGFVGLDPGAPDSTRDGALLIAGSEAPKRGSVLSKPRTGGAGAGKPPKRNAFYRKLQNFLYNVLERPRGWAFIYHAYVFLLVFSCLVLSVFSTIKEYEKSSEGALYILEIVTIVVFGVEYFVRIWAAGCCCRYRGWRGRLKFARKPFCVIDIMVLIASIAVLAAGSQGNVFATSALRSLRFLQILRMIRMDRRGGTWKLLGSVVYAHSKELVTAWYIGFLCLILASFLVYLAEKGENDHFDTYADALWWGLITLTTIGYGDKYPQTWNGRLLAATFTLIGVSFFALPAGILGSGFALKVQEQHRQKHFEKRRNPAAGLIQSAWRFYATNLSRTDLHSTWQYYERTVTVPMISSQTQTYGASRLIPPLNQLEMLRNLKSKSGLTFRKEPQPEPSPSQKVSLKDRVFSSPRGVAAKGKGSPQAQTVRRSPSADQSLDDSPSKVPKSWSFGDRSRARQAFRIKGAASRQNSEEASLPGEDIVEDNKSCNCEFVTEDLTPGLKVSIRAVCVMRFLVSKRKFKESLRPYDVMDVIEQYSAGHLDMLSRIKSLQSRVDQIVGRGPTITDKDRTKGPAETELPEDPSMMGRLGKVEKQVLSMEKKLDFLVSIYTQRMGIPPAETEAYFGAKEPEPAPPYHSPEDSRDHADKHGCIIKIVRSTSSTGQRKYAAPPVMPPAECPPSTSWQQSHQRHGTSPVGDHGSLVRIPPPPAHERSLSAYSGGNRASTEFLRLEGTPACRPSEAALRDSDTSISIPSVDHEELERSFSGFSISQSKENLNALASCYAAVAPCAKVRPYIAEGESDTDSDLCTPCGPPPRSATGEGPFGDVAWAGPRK
# KCNQ2 inh baseline – recorded beside KCNQ2 inh, whose call it bears; B-score; measured here: initial fluorescence intensity artifact check;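 brightness before thallium and not channel activity; 0 = typical well and far values either way flag optical interference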
# Active calls of the source: *; i = inactive. Not all compounds are listed (hit frequency here may not be typical).
Compound,KCNQ2 inh,KCNQ2 inh baseline
CCCCCn1c(=O)c(F)cn(Cc2ccc(OC)c([N+](=O)[O-])c2)c1=O,i,0.95
CN(CC1CCN(CCc2cccc(C(F)(F)F)c2)CC1)C(=O)c1ccc(F)cc1F,i,0.06
COc1ccc(NC(=O)NNC(=O)c2ccc(Cl)cc2Cl)cc1OC,i,0.01
COC(=O)C/C=C/[C@@H](C)[C@@H](/C=N/OC[C@H]1O[C@H](c2ccccc2)C=C[C@@H]1Oc1ccc(OC)cc1)OC,-6.9*,-0.94*
COc1ccc(NS(=O)(=O)c2cc(NC(=O)C3CC3)ccc2N2CCOCC2)cc1,i,2.1
CC(=O)Nc1ccc(S(=O)(=O)N(C2=NCC(C)S2)c2ccccc2)cc1 (stereo not given),i,1.6
Fc1cccc(Cl)c1CNc1ccc(N2CCCC2)cc1,i,0.16
O=C(c1ccc(F)cc1F)N1CCCC(c2nc(-c3ccc(F)cc3)no2)C1 (stereo not given),i,-0.04
CCc1nnc(NS(=O)(=O)c2ccc(NC(=O)c3cccc(Cl)c3)cc2)s1,i,0.41
Cc1ccc(C2C3=C(CC(C)(C)CC3=O)N=C3c4ccccc4C(=O)C32)cc1 (stereo not given),i,-2.9
COc1cc2c(cc1O)C(SC)=NC(C)(C)C2,i,-1.3
O=[N+]([O-])c1cccc(CSC2=NCCN2S(=O)(=O)c2ccccc2)c1,i,0.27

# The final two records of the section before lead into the next:
Compound,KCNQ2 inh,KCNQ2 inh baseline
COc1cc2c(cc1O)C(SC)=NC(C)(C)C2,i,-1.3
O=[N+]([O-])c1cccc(CSC2=NCCN2S(=O)(=O)c2ccccc2)c1,i,0.27
Cc1sc2ncn(CC(=O)N3CCCC(C)C3)c(=O)c2c1S(=O)(=O)N1CCCCC1 (stereo not given),i,0.01
Cc1cc(/C=C2\SC(=S)N(Cc3ccco3)C2=O)c(C)n1-c1cccnc1,i,0.75
CCC(CC)C1=NN2C(=N)/C(=C\c3cc(C)n(-c4cccc(C)c4)c3C)C(=O)N=C2S1,i,0.56
O=C(O)c1c(C(=O)O)c(-c2ccc(F)cc2)n2c1CCC2,i,1.6
Cc1c(N2C(=O)c3cccc4cccc(c34)C2=O)cnn1C,i,1.4
NS(=O)(=O)c1ccc(O)c(N2C(=O)c3cccc4c(C(=O)O)ccc(c34)C2=O)c1,i,0.75
Nc1c(S(=O)(=O)c2ccccc2)c2nc3ccccc3nc2n1Cc1ccco1,i,4.2
COc1ccc2cc(C(C)c3nc4ccccc4c(=O)n3N)ccc2c1 (stereo not given),i,1.6
CCc1c(C)nc2ncnn2c1N1CCC(C(=O)N2CCN(c3ccc(F)cc3)CC2)CC1,i,0.54
COc1ccc(CCNC(=O)/C(C#N)=C/c2ccc(OCC(=O)NCC3CCCO3)cc2)cc1OC (stereo not given),i,-0.04
Cc1ccc(S(=O)(=O)N(CC2CO2)c2cc(Cl)ccc2Cl)cc1 (stereo not given),i,-0.53
Cc1cccc(CN2C3=NCCCN3c3ccccc32)c1,i,-0.37
Cc1ccc(CNC(=O)COc2cc(O)c3c(c2)OC(C)(C)CC3=O)cc1,i,0.05
Cc1nnc(N2CCOCC2)c2ccccc12,i,-0.21
C/C(=N\NC(=S)NC1CCCCC1)c1cccs1,i,0.52
CCOc1cc(/C=N\Nc2ccc([N+](=O)[O-])cc2)ccc1OCC(=O)Nc1ccc(C)c(C)c1,i,1.4
CC(C)(C)OC(=O)N1CCC(C(=O)O)CC1,i,-0.99
CC(Sc1nc(N)cc(=O)[nH]1)C(=O)Nc1nc2c(s1)CCCC2 (stereo not given),i,0.01
COC(=O)c1c(C)oc(C)c1S(=O)(=O)N(Cc1ccccc1)C(C)C,i,0.52
O=c1[nH]nc(N/N=C/c2ccccc2OC(F)F)c(=O)[nH]1,i,-1.4
Cc1ccc(-n2ncc3c(=O)n(CC(=O)N(C)C)cnc32)cc1C,i,-1.1
O=C(Nc1ccc(Nc2ccccc2)cc1)c1ccco1,i,0.03
COc1ccc(-c2noc(=O)n2Cc2ccccc2Cl)cc1,i,-2.1
CCn1cc(/C=N/O)c(C)n1,i,-1.5
O=C(Nc1ccncc1)Nc1cccc(F)c1,i,-0.71
CCCCC(=O)Nc1ccc(NC(=O)c2cnccn2)cn1,i,1.6
Cn1c(CN2CCN(C(=O)c3ccccc3)CC2)nc2cc([N+](=O)[O-])ccc21,i,-0.98
COc1ccc(-c2nc(CCl)cs2)cc1,i,-0.08
CC1CCC(NCC(=O)Nc2cccc(S(N)(=O)=O)c2)CC1 (stereo not given),i,-0.7
Cc1ccc2[nH]c3c(=O)n(CCCN4CCN(C)CC4)cnc3c2c1,i,-1.1
CCOc1c(C(=O)CC)cc2c(C)cc(=O)oc2c1C,i,0.97
CN(C)c1ccc(N=Nc2ccccc2C(=O)OCC(=O)N(C)C2CCCCC2)cc1,i,-0.03
Cc1nc(SCC(=O)CC(=O)OC(C)C)c(C#N)c(C)c1C,i,-0.28
COc1ccccc1C(=O)NC(=O)CSc1nncn1C,i,-0.05
CCOC(=O)c1sc2nc(CC(=O)OC)nc(NCc3ccc(F)cc3)c2c1C,i,-1.1
O=C(Cc1ccc(Br)cc1)Nc1ccc2[nH]ncc2c1,i,0.69

# Reprinted from above (seven entries):
Compound,KCNQ2 inh,KCNQ2 inh baseline
Cc1ccc2[nH]c3c(=O)n(CCCN4CCN(C)CC4)cnc3c2c1,i,-1.1
CCOc1c(C(=O)CC)cc2c(C)cc(=O)oc2c1C,i,0.97
CN(C)c1ccc(N=Nc2ccccc2C(=O)OCC(=O)N(C)C2CCCCC2)cc1,i,-0.03
Cc1nc(SCC(=O)CC(=O)OC(C)C)c(C#N)c(C)c1C,i,-0.28
COc1ccccc1C(=O)NC(=O)CSc1nncn1C,i,-0.05
CCOC(=O)c1sc2nc(CC(=O)OC)nc(NCc3ccc(F)cc3)c2c1C,i,-1.1
O=C(Cc1ccc(Br)cc1)Nc1ccc2[nH]ncc2c1,i,0.69

# Next part
Compound,KCNQ2 inh,KCNQ2 inh baseline
CN(/N=C/c1ccc([N+](=O)[O-])o1)c1ccccc1,i,-0.18
COc1cc(C2=NOC(C(=O)Nc3ccc(C(C)=O)cc3)C2)cc(OC)c1OC (stereo not given),i,1.7
Fc1ccc(C(c2nnnn2C2CCCC2)N2CCc3ccccc32)cc1 (stereo not given),i,2.5
CCOCCCn1c(=S)[nH]c2cc(C(=O)NC3CCCC(C)C3C)ccc2c1=O (stereo not given),i,0.43
COc1cc2cc(C(c3nnnn3C(C)(C)C)N3CCC(C)CC3)c(=O)[nH]c2cc1OC (stereo not given),i,0.95
Cc1ccc(S(=O)(=O)N(C)c2ccc(OCc3cccc(C)c3)cc2)cc1,i,1.4
Cc1ccc(-n2nnnc2SC(C)C(N)=O)c(C)c1 (stereo not given),i,-0.27
Cc1ccc(SC[C@H](c2ccccc2)N2CCN(CCc3ccccc3)CCC2=O)cc1,-6.1*,-1.8*
Cn1c2ccccc2c(=O)c2c(=O)n(-c3ccccc3)c(C3CCCCC3)nc21,i,0.57
O=C(Nc1ccccc1)N1CCCN(Cc2c(F)cccc2Cl)CC1,i,-0.07
O=C(NCCc1ccccn1)/C(=C/c1ccco1)NC(=O)c1ccccc1,i,-0.35
CCN(Cc1ccccc1)C(=O)c1cccc(S(=O)(=O)N2CCN(Cc3ccccc3)CC2)c1,i,0.01
Cc1ccc(S(=O)(=O)N(C)C)cc1NC(=O)CN1CCN(Cc2ccccc2)CC1,i,1.1
CCCOc1ccccc1C(=O)N(Cc1ccco1)C1CCS(=O)(=O)C1 (stereo not given),i,0.9
C/C(CC(=O)Nc1ccccn1)=N\NC(=O)c1ccncc1,i,1.1
Cc1ccc2cc(NC(=O)c3ccccc3C)ccc2n1,i,-0.22
CCOC(=O)C1=C(C)NC(SCC(=O)OC)=C(C#N)C1c1ccc(C(=O)OC)cc1 (stereo not given),i,-0.28
COc1ccc(N2C(=O)[C@@H]3C(c4cccnc4)=NO[C@@H]3C2=O)cc1,i,-2.1
CC1Cc2cc(/C(O)=C3/C(=O)C(=O)N(CCCN4CCOCC4)C3c3ccc(C(C)C)cc3)ccc2O1 (stereo not given),i,1.2
CC(C)(C)NC(=O)C(c1ccccc1F)N(Cc1ccco1)C(=O)c1csnn1 (stereo not given),i,-1.3
Cc1ncc([N+](=O)[O-])n1CC(=O)Nc1ccc(F)c(Cl)c1,i,0.78
Oc1[nH]c2ccccc2c1N=NC(=S)N1CCOCC1,i,-0.8
O=S(=O)(NNc1cccc(Cl)n1)c1ccc(Cl)cc1,i,1.1
CCn1cc([N+](=O)[O-])c(C(=O)Nc2nc(-c3ccc(C)c(C)c3)c(C)s2)n1,i,-0.38
Cc1ccc2oc(=O)c3cnn(CC(=O)Nc4ccccc4N4CCN(C)CC4)c3c2c1,i,0.11
Cc1cccc(C)c1NC(=O)CN(C)C(C)C(=O)Nc1ccccc1-c1ccccc1 (stereo not given),i,2
C=CCn1c(SCC(=O)c2ccc(OC)cc2)nnc1-c1ccc2c(c1)OCO2,i,1
CC1CC(C)CN(S(=O)(=O)c2ccc3c(c2)CC(C)N3C(=O)C2CCC2)C1 (stereo not given),i,0.87
COc1cccc(CN(C)C(=O)c2ccccc2SCC(=O)N2CCCC2)c1,i,0.59
COc1ccc(-n2c(Cn3nc(C(F)(F)F)cc3C)n[nH]c2=S)cc1,i,0.33
Nc1ccc(S(=O)C(F)(F)F)cc1 (stereo not given),i,-0.37
O=S(=O)(c1cccc(C(F)(F)F)c1)N1CCC(c2cc(-c3cccc4ccccc34)n[nH]2)CC1,-6.1*,0.37*
CCOC(=O)C(=O)NNc1ccc(F)cc1,i,-1.8
COc1ccc(OC)c(NC(=O)Nc2ccc(O)c3ccccc23)c1,i,2
COc1ccc(-c2ccnc(-c3ccncc3)n2)cc1,i,1.1
Cc1occc1C(=O)NC1CCCCCCC1,i,-0.08
COc1ccc(-n2c(SCC(=O)Nc3nccs3)nc3c(c2=O)SCC3)cc1,i,1.8
COc1ccccc1N1CCN(C(=S)Nc2cccc(C)c2)CC1,i,0.37
CC(=O)N1c2ccc([N+](=O)[O-])cc2NC(=O)CC1C (stereo not given),i,-0.38
Cn1c(NC(=O)c2ccccc2Br)cc(=O)n(C)c1=O,i,0.23
O=C(N=C1SC2CS(=O)(=O)CC2N1Cc1ccc(F)cc1)C1CC1 (stereo not given),i,-0.54
COc1ccc(C2NC(C(=O)O)Cc3c2[nH]c2ccccc32)cc1OC (stereo not given),i,0.27
CC(=O)C1C(=O)CC(C)(O)C(C(C)=O)C1c1ccccc1 (stereo not given),i,1.7
Cc1cc(-c2nnc(SCC(=O)Nc3nc(-c4ccc(Cl)cc4)cs3)o2)no1,i,0.96
O=C(Nc1cccc([N+](=O)[O-])c1)c1ccccc1,i,-2.2
COc1ccc(N2CCN(c3ccc([N+](=O)[O-])nc3)CC2)cc1,i,-2.3
CCCNC(=O)CN(C)S(=O)(=O)c1ccc(F)cc1,i,1.3
COc1ccc2c(c1)C(=O)N(c1ccccc1OC)C(=O)C2,i,0.47
C=CCCN(C1CCCC1)S(=O)(=O)c1ccccc1Br,i,-0.29
CC(C)N(CCc1ccncc1)C(=S)Nc1cccc(Cl)c1,i,0.24
COc1ccc(C=O)cc1Cn1c(=O)n(CCC(=O)NCc2ccco2)c(=O)c2sccc21,i,0.5
CCNc1nc(NC(N)=S)nc(NC(C)(C)C)n1,i,0.19
CCCn1nnc(NC(=O)c2cccnc2Cl)n1,i,1.9
CC(C)CNC(=S)NNC(=O)c1ccc(OC(F)F)cc1,i,0.32
CCc1ccc(NCc2nc(-c3ccccc3)no2)cc1,i,1.9
Cc1cc(NS(=O)(=O)c2ccc(NC(=O)N[C@H](C(=O)O)C(C)C)cc2)no1,i,1.7
COc1ccc2c(CCNC(N)=S)c[nH]c2c1,i,-0.63
CS(=O)(=O)N(CC(=O)Nc1ccccc1C(=O)NCCc1ccccc1)c1ccc2c(c1)OCCO2,i,-1
O=C(CCSc1ccc(Cl)c(Cl)c1)NC12CC3CC(CC(C3)C1)C2,-11*,0.42*
COc1ccc(C2C(C(=O)OC3CCCCC3)=C(C)Nc3nnnn32)c(OC)c1OC (stereo not given),i,0.61

# The listing continues:
Compound,KCNQ2 inh,KCNQ2 inh baseline
Cc1cc(C)cc(NC(=O)c2ccc(CSc3nnnn3C)cc2)c1,i,-0.19
CCOc1ccc(S(=O)(=O)Nc2ccccc2SC)cc1,i,-0.59
O=C(CC1S/C(=N/N=C/c2ccco2)NC1=O)Nc1cccc(Cl)c1Cl (stereo not given),i,0.38
COc1ccc(CN2CCN(Cc3ccc(C(F)(F)F)cc3)CC2)cc1,i,1.8
Cc1ccc(NC(=O)C2C(c3ccccc3)C=CC(c3ccccc3)C2C(=O)O)cc1 (stereo not given),i,-0.74
Cc1ccc(CSc2nsc(C)c2C#N)cc1,i,-1
CC(C)(C)n1nnnc1C(c1ccncc1)N1CCCCCC1 (stereo not given),i,-0.26
COc1ccc(CCn2c(=O)[nH]c3cc(C(=O)N4CCN(c5ccccc5)CC4)ccc3c2=O)cc1OC,i,-0.54
Cc1c(C(=O)NC2CCCCC2)sc2ncnc(N3CCN(c4ccccc4)CC3)c12,i,-0.44
COc1ccc(-c2cnc(N)n2C)cc1,i,1.1
Cc1nn2c(c1-c1ccccc1)N=C(c1ccco1)CC2c1ccccc1 (stereo not given),i,-0.17
CCOC(=O)c1cnc(SCC(=O)Nc2ccc(N3CCOCC3)c(Cl)c2)nc1N,i,0.58
COc1cccc(-n2nnnc2SCC(=O)Nc2nc3c(s2)CCCC3)c1,i,0.6
